GIV-Gai inh: blocks GIV peptide binding to rat Galpha-i3 | P08753 | Galpha-i3/FITC-GIV peptide fluorescence polarization, 90 min; hits give low values; scaled: aluminum fluoride 0%, vehicle 100% | percent of control (FP), % (concentration not given with the values) | actives 0.42% (n = 210,000) | AID 1224905;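 active = replicate mean at 85% of control or lower, very high polarization wells dropped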;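 note: wells of about 15 µL received 100 nL stock; the first replicate is given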
Target sequence (P08753 whole entry, looked up): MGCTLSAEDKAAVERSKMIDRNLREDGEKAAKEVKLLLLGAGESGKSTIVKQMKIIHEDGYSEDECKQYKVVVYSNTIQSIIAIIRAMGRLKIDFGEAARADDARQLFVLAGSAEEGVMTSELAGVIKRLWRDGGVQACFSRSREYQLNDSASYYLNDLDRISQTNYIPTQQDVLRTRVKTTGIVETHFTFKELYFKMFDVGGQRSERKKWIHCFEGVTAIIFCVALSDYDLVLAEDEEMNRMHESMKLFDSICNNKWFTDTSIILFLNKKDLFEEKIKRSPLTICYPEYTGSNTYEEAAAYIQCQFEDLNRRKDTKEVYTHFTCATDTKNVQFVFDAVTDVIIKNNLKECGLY
An asterisk follows results filed as active. The list is partial; the hit share may differ from the screen's.

SMILES	GIV-Gai inh
Cc1nc2sc(C)c(C)n2c(=O)c1N	100
COCCOC(=O)C1=C(C)NC(C)=C(C(=O)OCCOC)C1c1ccc(-c2cccc(Cl)c2Cl)o1	99
O=S(=O)(c1ccc(-c2nnc(C3CCCC3)o2)o1)N1CCCCCC1	105
CC(C)CNS(=O)(=O)c1cc(-c2nc(C(C)(C)C)cs2)cs1	102
Cc1nc(-c2ccc(F)cc2)sc1-c1ccc(SCc2cccnc2)nn1	100
NC(=O)C1CCN(C(=O)c2ccc3c(=O)n(Cc4ccco4)c(SCC(=O)Nc4nccs4)nc3c2)CC1	111
O=C(NCCC1=CCCCC1)c1cccc(Oc2ccnc(-c3ccc(F)cc3)n2)c1	108
CCCS(=O)(=O)c1nc2ccc(NS(=O)(=O)c3ccc4c(c3)CCC4)cc2s1	104
CCN(c1ccc(F)cc1)S(=O)(=O)c1ccc2[nH]cc(C(=O)N3CCN(c4ccccc4)CC3)c(=O)c2c1	100
CC1Sc2sc(=S)sc2SC(C)(C)C1=O (stereo not given)	103
CC(C)n1c(N2CCN(C(=O)CCC(=O)N3CCOCC3)CC2)cc(=O)n(C(C)C)c1=O	99
O=C(c1ccc(F)cc1)N1CCN(C(=O)c2cc3cc(Br)ccc3[nH]2)CC1	99
Cc1ccc(-c2nn3c(=O)c(NC(=O)c4ccc(C(C)(C)C)cc4)cnc3o2)cc1	105
CC(=O)N1CCCc2cc(S(=O)(=O)N3CCC(C(=O)NCc4ccccn4)CC3)ccc21	105
Cc1csc(-c2cc(S(=O)(=O)NC(C)(C)C)cn2CC(=O)N2CCCC2)n1	114
O=C(/C=C/c1ccccc1)Nc1cc(C(=O)N2CCN(c3ccccc3)CC2)ccc1N1CC2CC(C1)c1cccc(=O)n1C2 (stereo not given)	112
COc1ccc(C(=O)N2CCc3ccc(CNC(=O)c4ccc(Cl)cc4)cc32)cc1	105
CCOC(=O)c1c(NC(=O)C(C)Sc2nnc(CNC(=O)c3ccco3)n2-c2cccc(Cl)c2)sc2c1CCC2 (stereo not given)	105
CCOc1ccc(-n2c(=S)sc3c2nc(SCC2OCCO2)n2c4ccccc4nc32)cc1	105
CC1CC=C2C(C#N)=C(N)C(C#N)(C#N)C3(C(=O)Nc4ccccc43)C2C1 (stereo not given)	124

Molecules shown so far that have an NH in an aromatic ring, in the order listed:
SMILES	GIV-Gai inh
CCN(c1ccc(F)cc1)S(=O)(=O)c1ccc2[nH]cc(C(=O)N3CCN(c4ccccc4)CC3)c(=O)c2c1	100
O=C(c1ccc(F)cc1)N1CCN(C(=O)c2cc3cc(Br)ccc3[nH]2)CC1	99

Later entries.
SMILES	GIV-Gai inh
O=c1c2cc([N+](=O)[O-])cc3cc([N+](=O)[O-])cc(c32)c2nc3ccccc3n12	115
COc1ccc(NC(=O)CN2C(=O)c3ccccc3C2=O)cn1	101
CCc1ccc(NC(=O)NCc2c(C)nn(-c3ccccc3)c2-n2cccc2)cc1	104
CC1(C)CC(C)(c2ccc(O)cc2O)N(c2cccc(Cl)c2)C(=S)N1 (stereo not given)	110
O=S(=O)(NC1CC1)c1cc(-c2noc(C3CCC3)n2)cs1	95
CCCCCCCC(Cl)C(=O)OC1CCC2(C)C(=CCC3C2CCC2(C)C(C(C)CCCC(C)C)CCC32)C1 (stereo not given)	113
COC(=O)C1=CN(Cc2ccc(OC)cc2)C=C(C(=O)OC)C1c1ccc(F)c(Br)c1	97
CCOC(=O)c1sc(NC(=O)CSc2nnc(C)s2)c(C(=O)OCC)c1C	121
O=C(c1cnn2c(C(F)(F)F)cc(-c3ccccc3)nc12)N1CCC(Cc2ccccc2)CC1	105
C=C1N(CC)C(=O)OC12CCCCC2	111
COc1ccc(/C=c2\sc3nnc(-c4ccc(C)cc4)n3c2=O)cc1	106
c1cnn(-c2cc(N3CCSCC3)ncn2)c1	107
CCOC(=O)CNc1nc(Cc2ccccc2)nc2sc3c(c12)CCCC3	102
COc1cccc(C(=O)N2CCN(C(=O)c3cc4ccccc4[nH]3)CC2)c1	107
COc1ccc(N2CCN(C(=O)c3cccc(N4C(=O)C5CC=CC(C)C5C4=O)c3)CC2)cc1 (stereo not given)	103
Cc1cc(C)c([N+](=O)[O-])cc1-c1ccc(/C=N/c2c(-c3ccco3)nc3ccccn23)o1	109
COc1ccccc1C1N(c2ccc(C)cc2)CCN1c1ccc(C)cc1	110
COc1ccc(C2Nc3ccc4ccccc4c3C3=C2C(=O)CC(c2ccccc2)C3)cc1OC (stereo not given)	103
O=C(CN1CCN(C(=O)c2cccc(Br)c2)CC1)Nc1nnc(-c2ccccc2)s1	99
Fc1ccc(-c2nc3cc(Cl)c(Cl)cc3nc2-c2ccc(F)cc2)cc1	101
CCN1C(=O)c2cccc3c(S(=O)(=O)N4CCCCC4)ccc1c23	100
O=C(NC1CCCC1)N1CCC2(CC1)Nc1ccccc1-n1cccc12	110
CCOC(=O)C1=CN(Cc2ccc(Cl)cc2)C=C(C(=O)OCC)C1c1cc(OC)c(O)c(OC)c1	106
O=C(CSc1nc2[nH]ncc2c(=O)n1-c1ccc(Cl)cc1Cl)Nc1ccc2c(c1)OCCO2	110
O=S(=O)(c1cc(F)cc(F)c1)N1CCC(c2noc(-c3ccccc3)n2)CC1	98
CCN(CC)CCCNC(=O)C(C)C1CCN(S(=O)(=O)c2c(C)noc2C)CC1 (stereo not given)	104
CCCCC(=O)Nc1nnc2n1CCCS2	103
CC(C)c1ccc(N(C)S(=O)(=O)c2ccc3[nH]cc(C(=O)NCCc4ccccc4)c(=O)c3c2)cc1	113
CCc1nnc(NC(=O)CCc2nc(CSc3nc4ccccc4[nH]3)no2)s1	103
CC(=O)NCCc1csc(C2CCN(C(=O)C3CC3)CC2)n1	103
O=C1/C(=C/c2ccc([N+](=O)[O-])cc2)C=C(c2ccccc2)N1c1ccc(Br)cc1	108
Cn1c(N2CCCC(C(=O)NCCCN3CCCC3)C2)cc(=O)n(C)c1=O (stereo not given)	104
O=C(Nc1ccccc1)N1CCN(Cc2cc(=O)n3nc(-c4ccccc4Cl)sc3n2)CC1	97
O=C1c2c(sc3c2CCCC3)NC2(C(=O)N(Cc3ccccc3F)c3ccccc32)N1CCc1ccccc1 (stereo not given)	110
CCCCC(=O)N1CCN(c2nc(C)cc(NCC)n2)CC1	106
O=C(Nc1ccccc1Br)N1CCCN(c2nc3cc(F)ccc3n3cccc23)CC1	98
CC(=O)N1CCc2sc(C(=O)NCCCN3CCCCC3)cc2C1	99
COc1ccc(S(=O)(=O)N2CCCC2c2cc(C(C)C)no2)cc1 (stereo not given)	106
CC1CCCN(c2nc(C(=O)NC3CC3)cs2)C1 (stereo not given)	100
CCOC(=O)C1=C(C)NC2=C(C(=O)c3ccccc32)C1c1ccc(OCC(=O)O)c(Cl)c1 (stereo not given)	109
O=C1C(=O)N(CCCN2CCOCC2)C(c2ccc(F)cc2)/C1=C(\O)c1ccc(Cl)cc1 (stereo not given)	106
Cc1ccc(C)c(N(C)S(=O)(=O)c2ccc3[nH]cc(C(=O)N4CCN(c5ccccc5)CC4)c(=O)c3c2)c1	103
CCN1CCN(c2ncnc3sc(C(=O)Nc4ccc(F)c(Cl)c4)c(C)c23)CC1	104
CCOc1ccccc1-n1c(=S)sc2c(=O)n(-c3ccc(F)cc3)c(=S)[nH]c21	104
COc1ccccc1NC(=O)c1sc(=S)n(-c2c(C)cccc2C)c1N	111
Cc1ccc(C(=O)COC(=O)c2ccc(N3C(=O)C4C5C=CC(C5)C4C3=O)cc2)cc1[N+](=O)[O-] (stereo not given)	101
CCOC(=O)C1=C(C)N=c2s/c(=C\c3ccc(Br)o3)c(=O)n2C1c1cccc(OC)c1 (stereo not given)	112
O=S1(=O)NC(=NCc2ccc3c(c2)OCO3)Nc2ccccc21	102
COc1cc(C2N(c3ccccc3)N=C(C(C)=O)N2c2ccccc2)ccc1OCc1ccc(Cl)cc1 (stereo not given)	117
CCOc1ccc2nc(SCc3nc(N)nc(N4CCOCC4)n3)sc2c1	107
CC(C)(C)c1ccc(Oc2cc(Br)c3noc4c3c2C(=O)c2ccccc2-4)cc1	107
COc1cccc(C(=O)N2CCN(c3nc4c(F)cccc4s3)CC2)c1	97
CCCCOc1cccc(NC(=O)CSC2=C(C#N)C(c3ccc(OCC)c(OC)c3)CC(=O)N2)c1 (stereo not given)	106
O=C(Nc1ccccc1C(F)(F)F)c1ccc(F)c(S(=O)(=O)N2CCN(c3ccccc3)CC2)c1	118
O=C1NC(c2ccccc2OCc2ccccc2)Nc2sc3c(c21)CCCC3 (stereo not given)	110
CCCCNc1nc(SCC(=O)n2nc(N)cc2C)nc2ccccc12	109
COc1ccc(/C=C2\C=C(c3ccccc3)N(c3ccc(Br)cc3C)C2=O)cc1	34*
O=C(NCCc1csc(-c2ccccc2)n1)[C@H]1CCCN1C(=O)c1ccc(F)c(F)c1	98
COc1ccc(NC(=O)c2ccc(SCCN3CCCCC3)nc2)cc1OC	98
Cn1nc(COCc2ccccc2)c2c1CCN(S(=O)(=O)c1cc(F)ccc1F)C2	103

Some of the entries so far, with values ahead of the structure.
GIV-Gai inh	Structure
109	CCOC(=O)C1=C(C)NC2=C(C(=O)c3ccccc32)C1c1ccc(OCC(=O)O)c(Cl)c1 (stereo not given)
106	O=C1C(=O)N(CCCN2CCOCC2)C(c2ccc(F)cc2)/C1=C(\O)c1ccc(Cl)cc1 (stereo not given)
103	Cc1ccc(C)c(N(C)S(=O)(=O)c2ccc3[nH]cc(C(=O)N4CCN(c5ccccc5)CC4)c(=O)c3c2)c1
104	CCN1CCN(c2ncnc3sc(C(=O)Nc4ccc(F)c(Cl)c4)c(C)c23)CC1
104	CCOc1ccccc1-n1c(=S)sc2c(=O)n(-c3ccc(F)cc3)c(=S)[nH]c21
111	COc1ccccc1NC(=O)c1sc(=S)n(-c2c(C)cccc2C)c1N
101	Cc1ccc(C(=O)COC(=O)c2ccc(N3C(=O)C4C5C=CC(C5)C4C3=O)cc2)cc1[N+](=O)[O-] (stereo not given)
112	CCOC(=O)C1=C(C)N=c2s/c(=C\c3ccc(Br)o3)c(=O)n2C1c1cccc(OC)c1 (stereo not given)
102	O=S1(=O)NC(=NCc2ccc3c(c2)OCO3)Nc2ccccc21
117	COc1cc(C2N(c3ccccc3)N=C(C(C)=O)N2c2ccccc2)ccc1OCc1ccc(Cl)cc1 (stereo not given)
107	CCOc1ccc2nc(SCc3nc(N)nc(N4CCOCC4)n3)sc2c1
107	CC(C)(C)c1ccc(Oc2cc(Br)c3noc4c3c2C(=O)c2ccccc2-4)cc1
97	COc1cccc(C(=O)N2CCN(c3nc4c(F)cccc4s3)CC2)c1
106	CCCCOc1cccc(NC(=O)CSC2=C(C#N)C(c3ccc(OCC)c(OC)c3)CC(=O)N2)c1 (stereo not given)
118	O=C(Nc1ccccc1C(F)(F)F)c1ccc(F)c(S(=O)(=O)N2CCN(c3ccccc3)CC2)c1
110	O=C1NC(c2ccccc2OCc2ccccc2)Nc2sc3c(c21)CCCC3 (stereo not given)
109	CCCCNc1nc(SCC(=O)n2nc(N)cc2C)nc2ccccc12
34*	COc1ccc(/C=C2\C=C(c3ccccc3)N(c3ccc(Br)cc3C)C2=O)cc1
98	O=C(NCCc1csc(-c2ccccc2)n1)[C@H]1CCCN1C(=O)c1ccc(F)c(F)c1
98	COc1ccc(NC(=O)c2ccc(SCCN3CCCCC3)nc2)cc1OC
103	Cn1nc(COCc2ccccc2)c2c1CCN(S(=O)(=O)c1cc(F)ccc1F)C2

(cont.)
SMILES	GIV-Gai inh
CN1CCN(C(=O)C2(c3cccc(Cl)c3)CC2)CC1	103
OC(CN1CCCC1)Cn1c2ccc(Cl)cc2c2cc(Cl)ccc21 (stereo not given)	108
C=CCSc1c(COC)cnc2c1c(=O)n(C)c(=O)n2C	107
C(=C\c1ccccc1)/CSc1nnc(-c2ccco2)n1-c1ccccc1	109
COc1cc(-c2nc3cnc(Br)cn3c2Nc2ccc(OC)c(OC)c2)ccc1O	105
CCc1ccc(NC2=CC(c3ccc(Br)cc3)N(c3ccc(CC)cc3)C2=O)cc1 (stereo not given)	111
Cc1ccc(-c2noc(C(=O)N3CCOCC3)n2)cc1S(=O)(=O)N1CCN(c2ccccn2)CC1	102
Cc1cc(-c2c(C)sc(C)c2S(=O)(=O)Nc2cccc(Br)c2)n[nH]1	100
O=C(O)Cn1c2ccccc2c2nn3cc(-c4ccccc4)nc3nc21	119
COCCNC(=O)c1nn2c(C(F)(F)F)cc(-c3ccc(Br)cc3)nc2c1Cl	108
CN1c2ccccc2-c2ccccc2C12C=Cc1ccccc1O2 (stereo not given)	109
CC(C)(C)Nc1nc(Cl)nc(Nc2cccc([N+](=O)[O-])c2)n1	110
CC1(C)C2([N+](=O)[O-])CN3CC1([N+](=O)[O-])CN(C2)C3c1ccccc1Cl (stereo not given)	109
CC(C)c1cc(C2CCCN2C(=O)c2cc(C(C)C)on2)on1 (stereo not given)	98
COc1cc(-n2c(C)nc3cc(C(=O)NCc4ccc5c(c4)OCO5)ccc32)cc(OC)c1OC	101

Compound activity as filed in PubChem BioAssay.
